RE007 growth inh: less growth of the S. pombe RE007 Vpr strain. S. pombe RE007 Vpr strain, BacTiter-Glo ATP luminescence, 24 h; control for the full effect not named in the record. Potency, µM (titrated, usually from 92.2 µM), for inactives: top-dose activity change, negative = less growth. 0.21% of 360,000 active. AID 651644; active = well fitted falling curve with a large enough effect; inconclusive = small, poorly fitted or top-dose-only effect; inactive = no such curve, though single readings can be large or run the other way;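 also: % is scaled to controls: 0 for no effect and ±100 for the full control effect; nearly all actives have a fitted effect of over 50% in size; the assay follows cell death caused by Vpr and the record does not say whether a fall means rescue or toxicity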
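Fission yeast RE007 carrying one integrated HIV-1 vpr copy, seeded at OD 0.01 in PMG+AL medium with 23 nL pinned compound. Grown 24 h at 30 degrees; viability read by BacTiter-Glo luminescence after 5 min.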
NS1 function inh: influenza NS1 inhibition | AID 2326 | 0.4% of 270,000 active | S. cerevisiae slowed by influenza A NS1, growth recovery by OD600 | Potency, µM (top dose mostly 46.1 µM), for the others: top-dose activity, positive = more growth; also: actives are rising curves; nearly all actives have a fitted effect of over 50% in size
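S. cerevisiae expressing influenza A NS1, grown in glucose, washed, then diluted 1:100 into pH 6.0 -URA galactose medium with 23 nl compound. Growth recovery read as OD600; NS1-free strain serves as control.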
SARS PLpro yeast: blocks SARS-CoV papain-like protease in a yeast assay; S. cerevisiae expressing SARS-CoV PLpro, growth rescue; control for the full effect not named in the record; Potency, µM (top dose mostly 32.9 µM), for inactives: at the highest dose activity, positive = growth rescue; 0.19% of 330,000 active; AID 485353; also: 0% is about no effect; nearly all actives have a fitted effect of over 55% in size; growth read by luminescence after 48 h
Lassa entry inh: blocks Lassa virus binding to or entry into cells. Potency, µM (top dose mostly 37.9 µM), for inactives: at the highest dose activity change, negative = inhibition, usual class: inhibitors. Lassa virus pseudotype entry inhibition, cell reporter; control for the full effect not named in the record. 1.2% of 300,000 active; active means well fitted inhibition curve with a large enough effect; inconclusive means small, poorly fitted or top-dose-only effect, or effect the other way; inactive means flat fitted curve, though single readings scatter; tested in HEK293 cells; also: % is scaled to controls: 0 for no effect and ±100 for the full control effect; nearly all actives have a fitted effect of over 50% in size; luciferase read-out
MARV entry inh: inhibitors of Marburg virus binding or cell entry | Marburg virus pseudotyped entry inhibition, cell reporter; control for the full effect not named in the record; about a third of the inactives were read at about 46 µM | Potency, µM (titrated, usually from 37.8 µM), without a hit: top-dose activity change, negative = inhibition, usual class: inhibitors | 1.8% of 300,000 active; active = well fitted inhibition curve with a large enough effect; inconclusive = small, poorly fitted or top-dose-only effect, or effect the other way; inactive = flat fitted curve, though single readings scatter; tested in HEK293 cells; about a fifth of its hits are not listed in these tables; also: % is scaled to controls: 0 for no effect and ±100 for the full control effect; luciferase read-out
Cruzain Triton: cruzain (T. cruzi) inhibition with detergent; purified cruzain, Z-FR-AMC fluorescence, 0.01% Triton; Potency, µM, for the others: max response, negative = inhibition, most hits filed as inhibitors; 0.43% of 200,000 active; AID 1478; active = well fitted curve in the direction sought with a large enough effect; inconclusive = small, poorly fitted or top-dose-only effect, or another doubt; inactive = no such curve, though single readings can be large; an effect the other way counts as inactive or inconclusive;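 also: plate controls were neutral wells for no effect and buffer without enzyme for full effect; nearly all actives have a fitted effect of over 40% in size; top concentration of the series not given in the record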
Target sequence (P25779 123-467 limits assumed): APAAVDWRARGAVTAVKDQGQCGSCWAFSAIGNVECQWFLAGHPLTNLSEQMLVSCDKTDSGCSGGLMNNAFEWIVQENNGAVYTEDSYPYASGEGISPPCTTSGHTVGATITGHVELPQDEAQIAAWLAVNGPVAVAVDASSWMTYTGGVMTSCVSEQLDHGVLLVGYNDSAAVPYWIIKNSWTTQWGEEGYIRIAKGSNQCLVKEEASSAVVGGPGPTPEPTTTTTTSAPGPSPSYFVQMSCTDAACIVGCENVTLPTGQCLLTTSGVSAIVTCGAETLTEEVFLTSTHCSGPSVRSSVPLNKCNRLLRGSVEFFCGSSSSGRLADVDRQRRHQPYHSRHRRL
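Sodium acetate buffer (100 mM, pH 5.5) containing 5 mM DTT and 0.01% Triton X-100 hosted 1.5 nM cruzain and test compound for 15 min at room temperature. Cleavage of 2 uM Z-FR-AMC was then tracked by fluorescence.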
Cruzain noTriton: cruzain (T. cruzi) inhibition without detergent | Potency, µM, inactives show max response, negative = inhibition, hits mostly inhibitors | purified cruzain, Z-FR-AMC fluorescence, no detergent | 2.3% of 200,000 active | P25779; active = well fitted curve in the direction sought with a large enough effect; inconclusive = small, poorly fitted or top-dose-only effect, or another doubt; inactive = no such curve, though single readings can be large; an effect the other way counts as inactive or inconclusive;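 also: plate controls were enzyme without inhibitor for no effect and buffer without enzyme for full effect; nearly all actives have a fitted effect of over 40% in size; top concentration of the series not given in the record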
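Detergent-free condition (0.00005% Triton X-100) in acetate buffer pH 5.5 with DTT. 1.5 nM enzyme and compound were pre-mixed 15 min, then 2 uM Z-FR-AMC substrate added; reaction progress from fluorescence change between first and third reads (60 s).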
StopGo reporter: lowers the luciferase signal of an FMDV 2A StopGo reporter | human cells with a luciferase reporter of 2A StopGo recoding; control for the full effect not named in the record | Potency, µM (series often up to 57.9 µM), for the others: top-dose signal change, negative = less light | 1.2% of 410,000 active | AID 1159524; active = well fitted falling curve with a large enough effect; inconclusive = small, poorly fitted or top-dose-only effect; inactive = no such curve, though single readings can be large or run the other way; tested in HEK293T cells; also: % is scaled to controls: 0 for no effect and ±100 for the full control effect; nearly all actives have a fitted effect of over 45% in size; luciferase light after 4 h
Numbers without * were called inactive; & = joins results of further samples; [ ] = dose if it differs, or a comment. Unless noted, calls follow the shape of the dose curve; as a rule, active means well fitted rising curve with a large enough effect; inconclusive means small, poorly fitted or top-dose-only effect; inactive means no such curve, though single readings can be large or run the other way. Potency is read from the fitted curve at half-maximal effect.

O=C1c2ccccc2NC(c2ccccn2)N1NS(=O)(=O)c1ccccc1 (stereo not drawn) was read as RE007 growth inh 8%, SARS PLpro yeast -1%, Lassa entry inh -24%[46.1 µM], MARV entry inh 12%[46.1 µM] and StopGo reporter 7%.
`CC(C)=C1C2C=CC1C(C(=O)Nc1cc(C)ccc1C)C2C(=O)O` (stereo not drawn) gave RE007 growth inh -12%, NS1 function inh -16%, SARS PLpro yeast 1%, Lassa entry inh 13%, MARV entry inh 0%[46.1 µM], Cruzain Triton -5.1%, Cruzain noTriton -3% and StopGo reporter 0%.
COc1ccccc1CC(=O)NCc1csc(-c2cccs2)n1 was read as RE007 growth inh -12%, NS1 function inh -9%, SARS PLpro yeast 1%, Lassa entry inh -27%, MARV entry inh 1%[14.2 µM] and StopGo reporter 40%[activator].
Screening CCOC(=O)N1CCC(NC(=O)CCCN2C(=O)CSc3ncccc32)CC1 returned RE007 growth inh 5%, NS1 function inh 2%, Lassa entry inh 17%, MARV entry inh 2%, Cruzain Triton 5.0%, Cruzain noTriton 7% and StopGo reporter -1%.
`COc1ccc(C(=O)Cn2c(Cl)nc3c2c(=O)n(C)c(=O)n3C)cc1` gave RE007 growth inh 15%, NS1 function inh 1%, SARS PLpro yeast 0%, Lassa entry inh -7%, MARV entry inh -15%[46.1 µM] and StopGo reporter inconclusive.
`Cc1ccc(/C=C/C(=O)O)cc1S(=O)(=O)NCc1cccnc1` gave RE007 growth inh 12%, NS1 function inh 2%, SARS PLpro yeast -5%, Lassa entry inh -3%[46.1 µM], MARV entry inh inconclusive and StopGo reporter -10%.
`CN(c1ccccc1)S(=O)(=O)c1cccc(Cl)c1Cl` gave RE007 growth inh 11%, NS1 function inh -49%, SARS PLpro yeast 2% and StopGo reporter -18%.
O=C(Nc1cccc(C(F)(F)F)c1)c1ccc2snnc2c1 was read as Lassa entry inh 0%[46.1 µM], MARV entry inh 17%[46.1 µM], Cruzain Triton -3.7%, Cruzain noTriton -12% and StopGo reporter -9%.
Cc1cc(/C=C2/C(=O)NC(=O)N(Cc3ccco3)C2=O)c(C)n1-c1ccc(C(=O)O)cc1 was read as RE007 growth inh 6%, NS1 function inh 8%, SARS PLpro yeast 1%, Lassa entry inh -2%[46.1 µM], MARV entry inh 19%&19%[46.1 µM] and StopGo reporter 14%.
`COC(=O)[C@H](CCSC)NC(=O)Nc1ccc(C)cc1C` gave RE007 growth inh 5%, NS1 function inh 1%, SARS PLpro yeast 15%, Lassa entry inh inconclusive, MARV entry inh 13%, Cruzain Triton -1.5%, Cruzain noTriton -3% and StopGo reporter -8%.
Cc1cc(C)cc(NC(=O)CSc2nnc(-c3ccccc3C)o2)c1 was read as RE007 growth inh -2%, NS1 function inh inconclusive, SARS PLpro yeast 8%, Lassa entry inh 21%, MARV entry inh -20%, Cruzain Triton -5.7%, Cruzain noTriton 14% and StopGo reporter -15%.
Screening Cc1ccc(NC(=O)CSc2nnc(-c3ccccc3Br)o2)cc1C returned RE007 growth inh 6%, NS1 function inh -24%, SARS PLpro yeast -7%, Lassa entry inh 19%, MARV entry inh inconclusive, Cruzain Triton -11%, Cruzain noTriton 11% and StopGo reporter 0%.

Two consecutive records from above:
Cc1cc(C)cc(NC(=O)CSc2nnc(-c3ccccc3C)o2)c1 was read as RE007 growth inh -2%, NS1 function inh inconclusive, SARS PLpro yeast 8%, Lassa entry inh 21%, MARV entry inh -20%, Cruzain Triton -5.7%, Cruzain noTriton 14% and StopGo reporter -15%.
Screening Cc1ccc(NC(=O)CSc2nnc(-c3ccccc3Br)o2)cc1C returned RE007 growth inh 6%, NS1 function inh -24%, SARS PLpro yeast -7%, Lassa entry inh 19%, MARV entry inh inconclusive, Cruzain Triton -11%, Cruzain noTriton 11% and StopGo reporter 0%.

Following part.
For CCOC(=O)C1(Cc2cccc(Cl)c2)CCCN(C(=O)CCC(=O)N(C)C)C1 (stereo not drawn) the results were RE007 growth inh 1%, NS1 function inh -3%, SARS PLpro yeast 0% and StopGo reporter -7%.
`O=C(NC1CC1)C1=C[C@H](C2CCCCC2)C[C@H](OCc2ccc(CO)cc2)O1` gave RE007 growth inh 17%, NS1 function inh -3%, SARS PLpro yeast -3% and StopGo reporter 3%.
Screening Cc1cc(S(=O)(=O)Nc2ccc(C(=O)NCC3(N(C)C)CCCCC3)cc2)ccc1F returned RE007 growth inh -1%, SARS PLpro yeast 10%, Lassa entry inh 4%, MARV entry inh -17% and StopGo reporter -8%.
For COc1ccccc1N(CC(=O)NCc1ccccc1)C(=O)CCC(=O)Nc1cc(C)ccn1 the results were RE007 growth inh 6%, NS1 function inh -1%, SARS PLpro yeast 28%, Lassa entry inh -27%, MARV entry inh 10%, Cruzain Triton -2.5%, Cruzain noTriton 12% and StopGo reporter 16%.
For CN(C)N=Nc1nc2c(c(=O)n(C)c(=O)n2C)n1C the results were RE007 growth inh 3%, NS1 function inh 4%, SARS PLpro yeast 0%, Lassa entry inh 2%, MARV entry inh inconclusive and StopGo reporter -19%.
`CCC1CCCCN1C(=O)CNCC1CCCO1` (stereo not drawn) gave RE007 growth inh 7%, NS1 function inh 2%, SARS PLpro yeast 1% and StopGo reporter -9%.
For COc1ccc(S(=O)(=O)NCC2CCCN(C(=O)c3sccc3C)C2)cc1 (stereo not drawn) the results were RE007 growth inh -7%, NS1 function inh -5%, SARS PLpro yeast 0%, Lassa entry inh -14%, MARV entry inh -9% and StopGo reporter 13%.
`COc1ccnc(Oc2ccccc2)c1C(=O)N/C=N/OCc1ccccc1` gave RE007 growth inh 1%, NS1 function inh 0%, SARS PLpro yeast 1%, Lassa entry inh -8%[46.1 µM], MARV entry inh inconclusive and StopGo reporter -17%.
For CC(=O)c1c(C)nc(-c2ccccc2)n1O the results were RE007 growth inh 8%, NS1 function inh -16%, SARS PLpro yeast -9%, Lassa entry inh inconclusive, MARV entry inh 15%, Cruzain Triton 5.0%, Cruzain noTriton 3% and StopGo reporter 4%.
Screening COc1ccc(CN2CCNC(=O)C2CC(=O)N(C)Cc2cc(C)no2)cc1OC (stereo not drawn) returned RE007 growth inh 10%, NS1 function inh 6%, SARS PLpro yeast -1%, Lassa entry inh 12%, MARV entry inh 27% and StopGo reporter -5%.
For Cc1ccc(NC(=O)Cn2c(=O)oc3cc(S(=O)(=O)N4CCC(C)CC4)ccc32)cc1C the results were RE007 growth inh 0%, NS1 function inh 14%, SARS PLpro yeast -9%, MARV entry inh 0%, Cruzain Triton -6.2%, Cruzain noTriton -12% and StopGo reporter -12%.
For Cc1ccc(C(NC(=O)C(C)C)c2cc([N+](=O)[O-])c3cccnc3c2O)cc1 (stereo not drawn) the results were RE007 growth inh 2%, NS1 function inh 4%, SARS PLpro yeast inconclusive, Lassa entry inh -4%, MARV entry inh inconclusive, Cruzain Triton -1.8%, Cruzain noTriton 0% and StopGo reporter -10%.
Screening O=S(=O)(Cc1ccccc1)NCCc1ccc(F)cc1 returned RE007 growth inh -3%, NS1 function inh 8%, SARS PLpro yeast 3%, Lassa entry inh 10%, MARV entry inh -7% and StopGo reporter 21%.
For Cc1ccc(NC(=S)N(CCCN2CCN(C)CC2)Cc2cccs2)cc1C the results were RE007 growth inh 5%, NS1 function inh -3%, SARS PLpro yeast 3%, Lassa entry inh -4%, MARV entry inh inconclusive and StopGo reporter 28%.
Screening O=C(c1ccccc1[N+](=O)[O-])N1CCC2(CC1)OCCO2 returned RE007 growth inh -2%, NS1 function inh 0%, SARS PLpro yeast -4%, Lassa entry inh 24%, MARV entry inh 0% and StopGo reporter -14%.
Screening CN1CCN(C2(CNC(=O)c3ccc([N+](=O)[O-])cc3)CCCCC2)CC1 returned Lassa entry inh 22%[46.1 µM], MARV entry inh -4%[46.1 µM], Cruzain Triton -0.5%, Cruzain noTriton 1% and StopGo reporter -4%.
`O=C(CSc1nnc(CNC(=O)c2cccs2)o1)NC1CCCC1` gave RE007 growth inh 17%, NS1 function inh -5%, SARS PLpro yeast -18%, Lassa entry inh 12%, MARV entry inh inconclusive, Cruzain Triton -1.3%, Cruzain noTriton 0% and StopGo reporter 19%.
CCC(Oc1ccccc1)C(=O)NCCCN1CCOCC1 (stereo not drawn) was read as RE007 growth inh 8%, NS1 function inh 3%, SARS PLpro yeast 2% and StopGo reporter 12%.
Screening COc1ccc2[nH]cc(C(=O)CNc3nc(C)cs3)c2c1 returned RE007 growth inh 11%, NS1 function inh -14%, SARS PLpro yeast -13%, Lassa entry inh inconclusive, MARV entry inh 7%, Cruzain Triton -2.3%, Cruzain noTriton -1% and StopGo reporter 44%[activator].
For O=C(NCC1CC1)c1onc(CSc2nc3ccccc3[nH]2)c1C(=O)NCC1CC1 the results were RE007 growth inh -7%, NS1 function inh 13%, SARS PLpro yeast -1% and StopGo reporter -15%.
CCN(CC)CC(=O)NCc1cc(-c2ccc(OC)cc2)no1 was read as RE007 growth inh -3%, NS1 function inh 1%, SARS PLpro yeast -24%, Lassa entry inh 11%, MARV entry inh inconclusive, Cruzain Triton -0.8%, Cruzain noTriton -7% and StopGo reporter 0%.
Screening CC(C)c1ccc(NC(=O)CSC(C)c2nc3ccccc3c(=O)[nH]2)cc1 (stereo not drawn) returned RE007 growth inh -6%, NS1 function inh 4%, SARS PLpro yeast 0%, Lassa entry inh 14%, MARV entry inh -9%[46.1 µM] and StopGo reporter -19%.
For CCOC(=O)CCc1c(C)nc2ncnn2c1C the results were RE007 growth inh -1%, NS1 function inh 0%, SARS PLpro yeast 3%, Lassa entry inh -13%, MARV entry inh 11%, Cruzain Triton 6.2%, Cruzain noTriton 6% and StopGo reporter inconclusive.
Screening COc1ccc(C(=O)NCCS(=O)(=O)N2CCN(C(=O)c3ccco3)CC2)cc1 returned RE007 growth inh 24%, SARS PLpro yeast -1%, Lassa entry inh 7%, MARV entry inh -1%[46.1 µM] and StopGo reporter -15%.

Screens deposited in PubChem BioAssay by National Center for Advancing Translational Sciences (NCATS).
